VDR inh – Inhibitors of the vitamin D receptor (VDR): qHTS; VDR-SRC2-3 peptide fluorescence polarization, 2 h; 400,000 tested, 0.93% active; Potency, µM, without a hit: max response, negative = inhibition, hits mostly inhibitors; active = well fitted inhibition curve with a large enough effect; inconclusive = small, poorly fitted or top-dose-only effect, or another doubt; inactive = no such curve, though single readings can be large or run the other way; also: series mostly up to about 120 µM
Target sequence (P11473 whole entry, looked up): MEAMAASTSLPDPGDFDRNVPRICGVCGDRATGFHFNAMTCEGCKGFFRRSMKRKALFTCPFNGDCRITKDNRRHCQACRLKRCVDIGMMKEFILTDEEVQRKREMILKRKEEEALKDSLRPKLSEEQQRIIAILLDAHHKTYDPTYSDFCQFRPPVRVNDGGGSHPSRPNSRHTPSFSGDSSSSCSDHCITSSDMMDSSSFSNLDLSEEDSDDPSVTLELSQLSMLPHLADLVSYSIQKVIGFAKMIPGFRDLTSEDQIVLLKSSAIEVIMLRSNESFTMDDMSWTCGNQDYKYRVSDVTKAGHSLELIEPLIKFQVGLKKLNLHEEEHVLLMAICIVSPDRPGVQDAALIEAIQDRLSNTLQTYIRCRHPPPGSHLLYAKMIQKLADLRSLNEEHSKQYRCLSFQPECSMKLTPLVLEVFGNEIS
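Reagent solutions, kept cold and dark, are dispensed first; compounds are then pinned in at 23 nl, plates briefly spun, and incubated 2 h at ambient temperature. Inhibition of VDR–SRC2-3 peptide binding is read by fluorescence polarization.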
* = called active by the depositor; ? = inconclusive; & = joins results of further samples. % is scaled to controls: 0 for no effect and ±100 for the full control effect; potency is read from the fitted curve at half-maximal effect.

Molecule	VDR inh
CS(=O)(=O)N(CC(=O)N/N=C/c1cccc2c1OCCO2)c1ccccc1Br	2%
CCOc1ccc(N2CC(C(=O)N/N=C/c3sccc3C)CC2=O)cc1 (stereo unspecified)	4%
CCCCCCC1CCC(C(=O)NC(C(=O)O)C(C)C)CC1 (stereo unspecified)	-22%
CCN1C(=O)[C@H]2[C@H]3CN=C(SCc4ccc(Cl)cc4)N3[C@@](CC)(C(=O)OC)[C@H]2C1=O	7%
COc1cccc(CNC(=O)Cn2cc3c(n2)-c2c(oc(C(=O)N4CCOCC4)c2C)CC3)c1	5%
CCOC(=O)CSc1nnc2cc(C)c3ccccc3n12	-4%
N/C(=N\OC(=O)COc1ccccc1)c1ccc(Cl)cc1	6%
CN(CCCC1CCCC1)C(=O)c1cc(COc2ccc(F)cc2F)on1	6%
CCn1cc(C(=O)NCCCN2CCC(C)CC2)c2cc(OC)c(OC)cc2c1=O	-5%
O=C1c2cccc3cccc(c23)C(=O)N1CCN1CCN(CC(O)COCc2ccc(Cl)cc2)CC1 (stereo unspecified)	2%
CCOc1ccccc1NC(=O)c1cnc2n(c1=O)CCS2	12%
CCN(c1cccc(C)c1)S(=O)(=O)c1c(C)nc2sc(C)cn2c1=O	2%
[N-]=[N+]=CC(=O)c1ccnc(C(=O)C=[N+]=[N-])c1	-10%
CCOC(=O)c1c(NC(=O)Cn2nnc(-c3ccc(Cl)cc3)n2)sc(CC)c1C	28%
O=C(CNc1cccc(Cl)c1)c1ccc(Cl)cc1	6%
COc1cc2c(cc1OC)CN(C(=O)CCCOc1ccc(Cl)cc1Cl)CC2	-3%
Cc1cc(C(=O)N/N=C/c2ccc(-c3ccc(C)c(Cl)c3)o2)n[nH]1	-5%
COc1ccc(-c2c(C)c3cc(O)ccc3oc2=O)cc1	4%
Nc1nc(-c2cccnc2)nc(N2CCCCC2)n1	-6%
O=C(Cc1ccc2c(c1)OCO2)NN=Cc1ccc([N+](=O)[O-])o1	-1%
Cc1nnc(SCC(=O)NNC(=O)c2ccc(F)cc2)n1Cc1ccccc1	-2%
CC(C)(C)Nc1nc(-c2ccc3c(c2)CCN3C(=O)C2CC2)cs1	3%
CCN(CC)C(=O)C1CCCN(c2ccccc2[N+](=O)[O-])C1 (stereo unspecified)	6%
COc1ccc(CNC(=O)[C@H](C)NC(=O)C2CCN(C(=O)[C@H](CCSC)NC(=O)OC(C)(C)C)CC2)cc1	9%
CCCNC(=O)c1ccc(S(N)(=O)=O)cc1	-2%
CCCS(=O)(=O)N1CCC(C(=O)NCCc2ccc(C)cc2)CC1	4%
NS(=O)(=O)c1ccc(NC(=O)COC(=O)CCc2ccccc2)cc1	-6%
COc1cc(OC)cc(C(=O)NCC2CCCN(Cc3ccc(SC)cc3)C2)c1 (stereo unspecified)	-10%
CCOC(=O)CCSc1nc(C)c2ccccc2n1	-2%
Cc1c[nH]c2cccc(OCC(O)CNC(C)(C)C)c12 (stereo unspecified)	2%
CCC(C)(C)n1nnnc1C(c1cc2ccc(OC)cc2[nH]c1=O)N1CCc2ccccc2C1 (stereo unspecified)	-2%
CCOc1ccccc1Nc1nc(-c2ccc(C)cc2)c(CC(=O)O)s1	1%
Cc1ccc(S(=O)(=O)n2nc(OC(=O)C(C)(C)C)cc2N)cc1	-8%
COc1ccccc1N1CN(CCc2ccccc2)CNC1=S	-9%
COc1cc(C(=O)Nc2oc(-c3ccccc3)c(-c3ccccc3)c2C#N)cc(OC)c1OC	6%
COc1cc(NS(=O)(=O)c2ccc(NC(=S)NC(=O)c3sc4ccccc4c3Cl)cc2)ncn1	?
Cc1cccc(CSc2nnnn2-c2ccccc2)c1	16%
COc1ccccc1-n1cnnc1SCC(=O)c1c[nH]c2ccccc12	?
N#C/C(=C\c1ccc(N2CCOCC2)o1)C(=O)NCCc1ccccc1	-2%
C#CCOc1ccc2c(C)cc(=O)oc2c1	12%&-8%
O=C(NCc1ccco1)C1(S(=O)(=O)c2ccc(Cl)cc2)CC1	8%
CCOC(=O)c1cc2oc(C(c3nnnn3C3CCCCC3)N3CCOCC3)cc2[nH]1 (stereo unspecified)	-5%
COc1ccc(C(=O)N/C(=C\c2cn(S(=O)(=O)N(C)C)c3ccccc23)C(=O)N2CCOCC2)cc1	-8%
C=CCN(CC=C)C(=S)Nc1cc(Cl)ccc1OC	1%
Cn1c(CC(=O)Nc2ccccc2C(F)(F)F)c(Sc2ccccc2)c2ccccc21	-7%
O=C(CSc1nnnn1-c1ccc(Cl)cc1)N1CCNC1=O	16%
N#Cc1ccccc1OCC(=O)N1N=C(c2cccs2)CC1c1ccco1 (stereo unspecified)	-13%
c1ccc(CNc2nc(NCc3ccccc3)c3ccccc3n2)cc1	-10%
CCn1c(=O)c2cc(S(=O)(=O)NC3CCCCC3)ccc2n(CC)c1=O	9%
COc1ccc(-n2c(Cc3ccccc3)nnc2SCc2nc(-c3cccs3)no2)cc1	12%

Some of the entries so far, with the structure last:
VDR inh,canonical_smiles
-9%,COc1ccccc1N1CN(CCc2ccccc2)CNC1=S
6%,COc1cc(C(=O)Nc2oc(-c3ccccc3)c(-c3ccccc3)c2C#N)cc(OC)c1OC
?,COc1cc(NS(=O)(=O)c2ccc(NC(=S)NC(=O)c3sc4ccccc4c3Cl)cc2)ncn1
16%,Cc1cccc(CSc2nnnn2-c2ccccc2)c1
?,COc1ccccc1-n1cnnc1SCC(=O)c1c[nH]c2ccccc12
-2%,N#C/C(=C\c1ccc(N2CCOCC2)o1)C(=O)NCCc1ccccc1
12%&-8%,C#CCOc1ccc2c(C)cc(=O)oc2c1
8%,O=C(NCc1ccco1)C1(S(=O)(=O)c2ccc(Cl)cc2)CC1
-5%,CCOC(=O)c1cc2oc(C(c3nnnn3C3CCCCC3)N3CCOCC3)cc2[nH]1 (stereo unspecified)
-8%,COc1ccc(C(=O)N/C(=C\c2cn(S(=O)(=O)N(C)C)c3ccccc23)C(=O)N2CCOCC2)cc1
1%,C=CCN(CC=C)C(=S)Nc1cc(Cl)ccc1OC
-7%,Cn1c(CC(=O)Nc2ccccc2C(F)(F)F)c(Sc2ccccc2)c2ccccc21
16%,O=C(CSc1nnnn1-c1ccc(Cl)cc1)N1CCNC1=O
-13%,N#Cc1ccccc1OCC(=O)N1N=C(c2cccs2)CC1c1ccco1 (stereo unspecified)

Carrying on:
Molecule	VDR inh
COc1cc(C(=O)N/C(=C\c2cn(S(=O)(=O)N(C)C)c3ccccc23)C(=O)NCCCO)cc(OC)c1OC	-21%
Cc1cc(-c2nnc(CCC(=O)N(CC3CCC3)CC3CCCO3)o2)no1 (stereo unspecified)	-5%
CCCn1c(N)c(C(=O)CN2CCc3ccccc3C2)c(=O)n(C)c1=O	-7%
COc1ccccc1CNC(=O)C(C)NS(=O)(=O)c1ccccc1 (stereo unspecified)	-10%
O=C(CSc1nnc(CNC(=O)c2c(F)cccc2Cl)o1)Nc1ccccc1F	-20%
O=C(CCN1CCCCCC1)Nc1cccc(F)c1	-1%
O=C(O)c1ccc2c(c1)N(Cc1ccccc1F)C(=O)c1ccccc1S2=O (stereo unspecified)	-8%
CCN1C(=O)/C(=C2/C(=O)N3c4c(cc(OC(C)=O)cc42)C(C)=CC3(C)C)SC1=S	4%
Cc1cc(C)nc(NS(=O)(=O)c2ccc(N/C=C/C(=O)c3ccc(Cl)cc3)cc2)n1	1%
CCCN(CC(=O)Nc1ccccc1OC)C(=O)c1ccc2ncsc2c1	-22%
Cc1ccccc1N1C(=O)C2CCCN2C1=S (stereo unspecified)	-16%
CCOC(=O)C1=C(C)NC(=O)NC1c1ccccc1 (stereo unspecified)	-7%
CCCc1cc(C(=O)Nc2ccc(C#N)cc2)no1	-1%
Cc1ccc(S(=O)(=O)CCC(=O)N(CCCN2CCOCC2)c2nc3ccccc3s2)cc1	1%
COc1ccc(C(=O)NNC(=O)CN2CCN(c3nc(-c4ccccc4)cs3)CC2)cc1	24%
CCO[C@H]1OC(C(=O)N2CCCCCCC2)=C[C@@H](C)[C@@H]1CCCO	-1%
Cc1cccc(C(=O)Nc2ccccc2OCc2cc(=O)n3c(C)csc3n2)c1	-21%
CC(=O)N[C@H]1C(O[C@@H]2O[C@H](C[C@@H](O)[C@H]3O[C@@H](N4CCC(=O)NC4=O)[C@H](O)[C@@H]3O)[C@H](O)[C@H](O)[C@H]2NC(=O)/C=C/CCCCCCCCCCC(C)C)OC(CO)[C@@H](O)[C@@H]1O (stereo partly specified)	6%
Cc1ccc(S(=O)(=O)N2CCCCC2)cc1NC(=O)COC(=O)C1CC2C=CC1C2 (stereo unspecified)	-1%
COc1ccc(CNC(=O)c2ccc(-c3nc(CSc4ccccc4)c(C)o3)cc2)cc1	-6%

The listing continues:
Structure,VDR inh
CC(NC(=O)CN(C)S(=O)(=O)c1ccc(F)cc1)C1CC2CCC1C2 (stereo unspecified),-24%
CN(C)C(CNc1ccc(S(C)(=O)=O)cc1[N+](=O)[O-])c1ccccc1 (stereo unspecified),8%
Cc1ccc(-n2nc3c(N4CCC(C(=O)NC5CCC(C)CC5)CC4)nnc(C)c3c2C)cc1 (stereo unspecified),-6%
O=C(C1CCN(S(=O)(=O)c2ccc(F)cc2)CC1)N1CC=C(c2ccccc2)CC1,11%
CN(C)CC(CCC(CN(C)C)C(=O)c1ccccc1)C(=O)c1ccccc1 (stereo unspecified),45µM*
COCCCNC(=O)CCCn1c(=O)c2ccccc2n(CC(=O)Nc2ccc(C)cc2Cl)c1=O,-5%
CN(C)C=C1C(=O)c2ccccc2C1=O,0%
CCCSc1nnc2nc(C)cc(C)n12,?
COC(=O)C1=C(C)N(c2cc(C)cc(C)c2)/C(=C/c2ccc(O)cc2)C1=O,50µM*
O=C(Nc1ccccc1)Nc1csc2ccccc12,6%
CCN(CC)c1ccc(NC(=O)COC(=O)/C=C/c2nc3ccccc3s2)cc1,-8%
S=C(NCc1ccccc1)NNc1nc2ccccc2[nH]1,25µM*
Cc1ccc(S(=O)(=O)N/N=C\c2cccnc2)cc1,-2%
Cc1ccc(C)c(N2CCN(C(=O)c3ccc(N4CCOCC4)c([N+](=O)[O-])c3)CC2)c1,-2%
O=C(c1ccc(-n2cnnn2)cc1)N1CCCCC1,-13%
COc1ccccc1NC(=O)Cn1c(=O)sc2ccccc21,-1%
CC(=O)Nc1sc(N/N=C/c2ccc(O)cc2)nc1-c1ccc(C)cc1,-26%
CCN(CC)c1ccc(C=Nc2ccc(C)cc2)c(O)c1,-1%
Cc1c(Cl)cnc(NC(=O)COC(=O)c2cccs2)c1Cl,6%
Cc1cc(C)c2c(n1)sc1c(=O)n(Cc3ccc(F)cc3)cnc12,6%
Cc1cc(C)c(S(=O)(=O)N2CCN(S(=O)(=O)N3CCC(C)CC3)CC2)c(C)c1,18%
CC(OC(=O)c1nc(Cl)ccc1Cl)C(=O)Nc1ccc2c(c1)OCCO2 (stereo unspecified),-7%
Cc1ccc(C(=O)Nc2ccc(C(=O)O)cc2NC(=O)c2ccc(C)cc2)cc1,-15%
CCCCN(C(=O)c1ccc(C)c(S(=O)(=O)N2CCOCC2)c1)c1c(N)n(CCCC)c(=O)[nH]c1=O,-3%
COc1cccc(C(=O)CN(C(=O)c2ccc(Cl)c(Cl)c2)N2C(=O)C3CCCCC3C2=O)c1 (stereo unspecified),-13%
COCCCNC(=O)c1c(-c2ccccc2)noc1C,2%
O=c1[nH][nH]c(-c2ccccc2)c1C=Nc1ccc(F)cc1F,-3%
Cc1nn(CC(=O)NC2(C#N)CCCCC2)c(C)c1[N+](=O)[O-],9%
COc1ccc(S(=O)(=O)Nc2c(C(=O)O)[nH]c3ccccc23)c(OC)c1,-12%
CC(C)(C)c1ccc(C(=O)Nc2cccc(-n3cnnn3)c2)cc1,3%
CCCCN(C(=S)Nc1ccc(F)cc1)c1c(N)n(CCC)c(=O)[nH]c1=O,-11%
CCC(=O)N1CCc2cc(Br)cc(S(=O)(=O)N3CCCC(C(=O)O)C3)c21 (stereo unspecified),-1%
O=C(/C=C/c1ccco1)Nc1ccc(Cl)c(S(=O)(=O)N2CCOCC2)c1,3%
Cc1nc(N2N=C3/C(=C/c4ccc(F)cc4)CCCC3C2c2ccc(F)cc2)sc1C(=O)N(C)C (stereo unspecified),-4%
COc1cccc(CNC(=O)C2(c3cccs3)CCOCC2)c1,8%
Cc1cc(C)cc(C(=O)N(C)[C@H](Cc2ccc(-c3ccccc3)cc2)C(=O)N[C@@H](Cc2c[nH]c3ccccc23)C(=O)O)c1,?
CC(C)C1OC2(C)OC(=N)C1(C#N)C(C#N)(C#N)C2c1ccccc1 (stereo unspecified),7%
COc1cc(NC(=O)c2ccco2)c(OC)cc1NC(=O)CCC(=O)Nc1cc(C)cc(C)c1,6%
COC(=O)c1ccc2c(c1)NC(=O)C(N(CC(C)C)CC(C)C)S2 (stereo unspecified),11%
O=C(OCn1nnc2ccccc2c1=O)c1cccnc1Cl,-2%
Cc1ccccc1N=C1c2cc([N+](=O)[O-])ccc2-c2ncccc21,-10%
COc1ccccc1-c1nn2c(=O)cc(CN3CCN(C(=O)/C=C/c4ccccc4)CC3)nc2s1,-6%
CCc1ccc(NC(=O)C(=O)NCC(c2cccnc2)N2CCN(C)CC2)cc1 (stereo unspecified),14%
FC(F)(F)c1cccc(Nc2nc(N3CCCC3)nc(N3CCCC3)n2)c1,-12%
CC(C)(C)CC(C)(C)c1ccc(OCC(=O)N/N=C/c2ccc(S(=O)(=O)O)o2)cc1,-9%
CC(C)OC(=S)N/C(=N\S(=O)(=O)c1ccccc1)c1ccccc1,8%
CCC(CO)NCc1ccccc1OC(C)C (stereo unspecified),5%
COc1cccc(C2c3c(oc4cc(C)c(C)cc4c3=O)C(=O)N2CCCN(C)C)c1 (stereo unspecified),-3%

Compound activity from PubChem BioAssay.

A portion of the library. The share of hits here may be higher or lower than overall.
